TsaE inh = displaces an ADP probe from E. coli YjeE (TsaE). P0AF67. purified YjeE, fluorescence polarisation of a bound ADP probe. Potency, µM. 71,000 tested, 0.05% active. AID 605; active = well fitted falling curve; inconclusive = weaker or top-dose-only fall, or a rising curve; inactive = flat or poorly fitted curve;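 also: top concentration of the series not given in the record; excess ADP was the control for the full effect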
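Purified YjeE (10 uM) with BODIPY Texas Red-labeled ADP probe (2 uM); compounds pin-transferred, 15 min at room temperature. Binding inhibition read as decreased fluorescence polarization; ADP titration as control.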
Bst PK mod = modulators of Bacillus stearothermophilus pyruvate kinase; partly purified Bacillus stearothermophilus pyruvate kinase, luminescence ATP production; ribose 5-phosphate activator present at AC10; Potency, µM; 51,000 tested, 1.2% active; AID 361; in the data active means potency below about 11 µM; inconclusive means mostly about 12 µM to 25 µM; inactive means weaker than that;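 the screen sought inhibitors and activators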;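 also: potency is read from the fitted curve at half-maximal effect; scaled between full activation by ribose 5 phosphate and full inhibition by luteolin; about four in five hits inhibit and the cells do not say which; series up to 57 µM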
* = called active by the depositor; i = inactive; ? = inconclusive; . = not tested or not shown. The list is partial; the hit share may differ from the screen's.

Results follow in this order: TsaE inh	Bst PK mod
- CC1(C)CC2(CCCN3C(=O)CSC32)CCS1 (configuration not stated)
 : i	>57
- CC(=O)c1c(C)nc(-c2ccc(Cl)cc2)nc1N=CN(C)C
 : i	?
- CCc1cccc(NC(=O)Cn2ncn3c(cc4ccccc43)c2=O)c1
 : i	>57
- Cn1nnnc1SCCNC/C=C/c1ccccc1
 : i	>57
- O=S(=O)(Nc1cccnc1)c1ccc2c(c1)OCCO2
 : i	>57
- CCOC(=O)c1[nH]c(=O)[nH]c1CSc1ccccn1
 : i	>57
- CC1CN(C(=O)C2CCCN2S(=O)(=O)c2ccc(Cl)cc2)CC(C)O1 (configuration not stated)
 : i	>57
- Cc1ccc(S(=O)(=O)n2nc(-c3cccnc3)nc2N)cc1
 : i	.
- COc1ccc(-c2nnc(SCC(=O)c3cccs3)o2)cc1
 : i	>57
- O=C(O)c1ccccc1-c1nc2ccccc2c(=O)[nH]1
 : i	.
- c1coc(-c2nnc(-c3ccc4c(c3)OCO4)o2)c1
 : i	.
- COC(=O)c1ccccc1NC(=O)C1CCN(S(=O)(=O)c2cc(OC)ccc2OC)CC1
 : i	>57
- Cn1c(=O)[nH]c(=O)c2c1nc(CN1CCOCC1)n2CCc1ccccc1
 : i	>57
- COc1ccccc1N1C(=O)CCC1(C#N)c1ccccc1 (configuration not stated)
 : i	.
- COC(=O)c1ccc(C2C(C#N)=C(N)Oc3cc(C)n(C)c(=O)c32)cc1 (configuration not stated)
 : i	>57

An excerpt of these results, field by field:
> CC(=O)c1c(C)nc(-c2ccc(Cl)cc2)nc1N=CN(C)C
  TsaE inh = i | Bst PK mod = ?

> CCc1cccc(NC(=O)Cn2ncn3c(cc4ccccc43)c2=O)c1
  TsaE inh = i | Bst PK mod = >57

> Cn1nnnc1SCCNC/C=C/c1ccccc1
  TsaE inh = i | Bst PK mod = >57

> O=S(=O)(Nc1cccnc1)c1ccc2c(c1)OCCO2
  TsaE inh = i | Bst PK mod = >57

Additional compounds:
Results follow in this order: TsaE inh	Bst PK mod
- Cn1c(=N)n(CC(=O)O)c2ccccc21
 : i	>57
- CCOC(=O)N1CCC(n2c(=S)[nH]c3cc(OCC)c(OCC)cc3c2=O)CC1
 : i	>57
- Cc1c(C(=O)Nc2ccc3c(c2)OCCO3)sc2nc(-c3ccccc3)cn12
 : i	.
- CCOC(=O)c1c(CN2CCN(CCO)CC2)n(C)c2cc(Br)c(OC)cc12
 : .	>25.6
- O=C(N1CCOCC1)N1CCN(c2nc(-c3ccc(F)cc3)cs2)CC1
 : i	i
- CC1CCC(NC(=O)Cn2c(=O)[nH]c3ccsc3c2=O)CC1 (configuration not stated)
 : i	>57
- CC(C)CCn1c(Sc2nc3ccccc3s2)nc2c1c(=O)[nH]c(=O)n2C
 : i	>57
- Cn1c(=O)c(C(=O)CSc2nncs2)c(N)n(Cc2ccccc2)c1=O
 : i	>57
- CC1(C)CC(C(CC(=O)O)c2ccccc2)CCO1 (configuration not stated)
 : i	>57
- CCn1cc(C(C)NC(=O)COc2ccc(Cl)cc2C)c(C)n1 (configuration not stated)
 : i	>57
- Cn1c(OCc2cccnc2)nc2c1c(=O)n(Cc1ccc(Br)cc1)c(=O)n2C
 : .	>25.6
- Cc1nc2cnc(N3CCN(C)CC3)nc2n(Cc2cccs2)c1=O
 : i	.
- O=S1(=O)C=CC(Nc2cccc(Cl)c2)C1 (configuration not stated)
 : i	>57
- O=C(NCc1ccco1)Nc1ccc(Br)cc1Cl
 : i	>57
- Cc1cc(N2CCN(C3CCCC3)CC2)n2ncc(-c3ccccc3)c2n1
 : i	>57

The listing continues.
Results follow in this order: TsaE inh	Bst PK mod
- CN1C(=O)c2cccc(N(C)C)c2C1=O
 : i	>57
- COc1ccc(NC(=O)c2ccccc2NC(=O)c2ccco2)c(OC)c1
 : i	.
- O=C(O)C1CC=CCC1C(=O)NC12CC3CC(CC(C3)C1)C2 (configuration not stated)
 : i	>57
- CN(C)CCCNc1oc(-c2ccc(Cl)cc2)nc1C#N
 : i	.
- O=C(Cn1cc2c(n1)CCCC2)NCCCN1CCN(C2CCCCC2)CC1
 : i	.
- CN(C)c1ccc(CNC2CC(C)(C)NC(C)(C)C2)cc1
 : i	>57
- COc1ccc(C2CCCN2C(=O)Nc2ccc(F)cc2)cc1OC (configuration not stated)
 : i	.
- CC12CCC(C(=O)Nc3cccc(NC(=O)C45CCC(C)(C(=O)O4)C5(C)C)n3)(OC1=O)C2(C)C
 : i	>57
- CN1CCN(C(=O)c2ccc(N(Cc3ccccc3Cl)S(C)(=O)=O)cc2)CC1
 : i	>57
- CCC(CCC(=O)Nc1cccc(C(=O)O)c1)C(=O)O (configuration not stated)
 : i	>57
- CCC(C(=O)N1CCN(c2cccc(Cl)c2)CC1)c1ccccc1 (configuration not stated)
 : i	.
- CCCCCCN(C(=O)CCCCCN1C(=O)NC(c2ccc(-c3ccccc3)cc2)C(C(=O)OCc2ccccc2)=C1C)C(C(=O)NCCCC)c1ccc(OCC(=O)OC)cc1 (configuration not stated)
 : i	.
- O=Cc1ccc(C(=O)O)cc1
 : i	.
- Cc1cccc(N=C2NC(=O)CS2)c1C
 : i	>57
- O=C(NCc1ccco1)c1cc(-c2ccncc2)nc2ccccc12
 : i	.

Copied from the list:
CN1CCN(C(=O)c2ccc(N(Cc3ccccc3Cl)S(C)(=O)=O)cc2)CC1 in Bst PK mod is entered as >57
CN1C(=O)c2cccc(N(C)C)c2C1=O in Bst PK mod is entered as >57

The list continues.
Results follow in this order: TsaE inh	Bst PK mod
- CCCCC(c1nnnn1C1CCCC1)N1CCN(C2CCCCC2)CC1 (configuration not stated)
 : i	>57
- Cc1cc(NC(=O)c2cc(-c3ccccn3)nc3ccccc23)no1
 : i	>57
- Cc1ccc(N2C(=O)c3ccc(N)cc3C2=O)cc1C
 : i	.
- Cc1ccc([C@@H]2C3COCC=C3C(C#N)=C(N)C2(C#N)C#N)o1 (some centres not stated)
 : i	>57
- CCCN(CCC)S(=O)(=O)c1ccc(C(=O)Nc2nnc(-c3cc(OC)cc(OC)c3)o2)cc1
 : ?	>57
- CC1NC2(C(=O)N(Cc3ccccc3)c3ccccc32)C2C(=O)N(c3ccccc3)C(=O)C12 (configuration not stated)
 : i	.
- CCn1cc(SCC(=O)Nc2cc(C)on2)c2ccccc21
 : i	.
- COc1ccc(OC)c(CNC(=O)C2CCCN(C(=O)N(C)C)C2)c1 (configuration not stated)
 : i	>57
- CCNCCCNCCCNCCCNCC
 : i	.
- CCC/C=C(\CCC)C(NS(=O)(=O)c1ccc(Cl)cc1)c1ccccc1 (configuration not stated)
 : i	.
- Brc1ccc(-c2ccccc2)cc1
 : i	.
- Cc1occc1C(=O)Nc1nnc(C(F)(F)F)s1
 : i	>57
- CCc1cc2c(=O)c(Oc3ccccc3F)c(C)oc2c(CN(C)C)c1O
 : i	.
- COc1ccc2nc3sc(C(=O)N4CCN(C)CC4)cc3cc2c1
 : i	.
- CC(O)c1ccc2c(c1)OCCOCCN(C)CCOCCO2 (configuration not stated)
 : i	>57

More entries follow:
Results follow in this order: TsaE inh	Bst PK mod
- CCCS(=O)(=O)N1CCCC(C(=O)NC(C)c2ccc3c(c2)OCCO3)C1 (configuration not stated)
 : i	>57
- O=C1N(Cc2ccc3c(c2)OCO3)c2ccccc2C1(O)c1c[nH]c2ccccc12 (configuration not stated)
 : i	>57
- CN(c1ccccc1)S(=O)(=O)c1ccc(C(=O)OCC(=O)N2CCOCC2)cc1
 : i	>57
- O=C(NCc1ccc2c(c1)OCO2)c1ccc(CS(=O)(=O)c2ccc(Br)cc2)o1
 : i	.
- COc1c(C(=O)N2CCCC2)ccc2ccccc12
 : i	.
- CCc1cc(C(=O)OC)c(NC(=O)c2cc(Br)cs2)s1
 : i	>57
- CSc1ccc(C=O)cc1
 : i	.
- COCc1cc(C)nc(Nc2ccccc2C)c1C#N
 : i	>57
- c1ccc(C(c2ccccc2)N2CC[C@@]3(CCCNC3)C2)cc1
 : i	.
- O=C(CCCNS(=O)(=O)c1cccc2nsnc12)NC1CCCCC1
 : i	>57
- CCCC(=O)N(c1ccc2oc(=O)sc2c1)S(=O)(=O)c1ccccc1
 : i	>57
- CCCC/C=C/C(NC(=O)Oc1cccc(C(F)(F)F)c1)c1ccccc1 (configuration not stated)
 : i	.
- CCn1c(=N)n(CCO)c2ccccc21
 : i	>57
- O=C(NCc1ccc2c(c1)OCO2)C1CCCN(S(=O)(=O)c2cccnc2)C1 (configuration not stated)
 : i	.
- C/C(N)=C(/C#N)C(=O)CSc1ccc2c(c1)OCCO2
 : i	>57

Further entries follow.
Results follow in this order: TsaE inh	Bst PK mod
- CCOC(=O)Nc1ccc(S(=O)(=O)Nn2cnnc2)cc1
 : i	.
- COC(=O)C1C(=O)NCC1c1ccccc1 (configuration not stated)
 : .	>25.6
- CCN(CC)C(=O)CSc1nnc(-c2ccccc2)n1N
 : i	>57
- CN(CCCC(=O)NCc1ccco1)S(=O)(=O)c1ccccc1
 : i	>57
- O=C1CSC(c2nn(-c3ccccc3)cc2-c2cc3ccccc3oc2=O)N1Cc1ccco1 (configuration not stated)
 : i	>57
- O=C1C2CCCN2C(c2ccc(Cl)cc2)N1c1nccs1 (configuration not stated)
 : i	>57
- CCOC(=O)N1CCC(N(CCCOC)C(=O)Nc2ccc(CC)cc2)CC1
 : i	>57
- Cc1c(CN2CCCCC2C)c(=O)n(-c2ccccc2)n1C (configuration not stated)
 : i	.
- Cc1ccc(CNC(=O)c2oc3ccc(S(=O)(=O)N4CCC5(CC4)OCCO5)cc3c2C)cc1
 : i	>57
- CCCNS(=O)(=O)c1ccc(CCC(=O)N2CCOCC2)cc1
 : i	>57
- O=C(O)CCCCCN1C(=O)CSC1=S
 : i	>57
- CCOC(=O)c1cnc(SCC(=O)Nc2ccccc2N2CCOCC2)nc1N
 : i	>57
- CC(NC(=O)c1cccs1)C(c1cccs1)N1CCOCC1 (configuration not stated)
 : i	>57
- CCCC(CCC(=O)NC1CCCCC1)C(=O)O (configuration not stated)
 : i	>57
- O=C(NCc1ccccc1)C1CC2CCCC(C1)C2=O (configuration not stated)
 : i	>57

The list goes on.
Results follow in this order: TsaE inh	Bst PK mod
- Cc1cc(C)nc(N(C#N)Cc2ccc(Br)cc2)n1
 : i	>57
- Cc1cc(=O)[nH]c(SCC2COC3(CCCCC3)O2)n1 (configuration not stated)
 : i	.
- Cc1ccc(C(=O)Nc2nccs2)cc1S(=O)(=O)N1CCCCC1
 : i	>57
- Nc1ccc2oc(CCc3ccccc3)nc2c1
 : i	.
- CN(C(=O)c1ccccc1Cl)C1CCCCC1
 : i	>57
- Fc1ccccc1N1CCN(C(c2ccccn2)c2nnnn2C2CCCCC2)CC1 (configuration not stated)
 : i	>57
- O=C(Cn1nc(Cc2ccncc2)c2ccccc2c1=O)N1CCN(C(=O)c2ccco2)CC1
 : i	.
- Cn1cccc1Cc1nnc(SCC(=O)NC2CCCCC2)n1CCc1ccccc1
 : i	.
- CC(C)(O)C#Cc1ccc(C(=O)N2CCC(C(N)=O)(N3CCCCC3)CC2)cc1
 : i	>57
- CC(C)(CO)NS(=O)(=O)c1ccc2c(c1)oc(=O)c1cc(S(=O)(=O)NC(C)(C)CO)ccc12
 : i	>57
- Cc1ccc(C)c(-n2c(CNc3ccc(F)cc3)nnc2SCC(N)=O)c1
 : i	>57
- COc1ccc(C2C(C(C)=O)=C(C)N=c3s/c(=C\c4ccco4)c(=O)n32)c(OC)c1 (configuration not stated)
 : i	.
- O=C(CCNS(=O)(=O)c1cccc2nsnc12)N1CCN(c2ccccn2)CC1
 : i	>57
- Cn1c(=O)n(C)c2cc(CN3C(=O)OC(C)(C)C3(C)O)ccc21 (configuration not stated)
 : i	.
- COc1cccc(OCCCCSc2ncccn2)c1
 : i	.

Next part:
Results follow in this order: TsaE inh	Bst PK mod
- O=C(CCSc1nnc2ccccn12)Nc1ccc(F)cc1
 : i	>57
- Oc1ccc(Nc2nc(NCC3CCCO3)c3ccccc3n2)cc1 (configuration not stated)
 : i	.
- COc1ccc(N2CCN(c3oc(COc4ccc(Cl)cc4)nc3C#N)CC2)cc1
 : .	>25.6
- COc1ccc(CCNC(=O)c2ccc3c(=O)n(Cc4ccco4)c(=S)[nH]c3c2)cc1OC
 : i	>57
- O=C(Nc1ccccc1)c1cccc(-c2nnc(-c3ccccc3)o2)c1
 : i	>57
- O=C1c2ccccc2C(=O)C1c1ccncc1
 : i	.
- CCCn1c(=O)[nH]c(=O)c2c1nc(-c1ccc3c(c1)OCCO3)n2CCN1CCOCC1
 : i	>57
- Cc1cc(C(=O)N2CCc3ccccc32)c2ccccc2n1
 : i	>57
- COc1ccc(N(C(=O)c2ccccc2OC)C2C=CS(=O)(=O)C2)c(OC)c1 (configuration not stated)
 : i	>57
- CCCCCCC1C(C#N)=C(N)OC2=C1C(=O)CC(C)(C)C2 (configuration not stated)
 : i	.
- Cc1ccccc1Nc1nc(N)nc(COC(=O)CCS(=O)(=O)c2ccccc2)n1
 : i	>57
- O=C(NCc1ccco1)C1CCCN(S(=O)(=O)c2cnc[nH]2)C1 (configuration not stated)
 : i	.
- O=S(=O)(Cc1ccc(Cl)cc1)N1CCN(Cc2ccccc2)CC1
 : i	>57
- O=C(Nc1ccc2nn(-c3ccccc3)nc2c1)c1ccc(Br)o1
 : i	>57
- CCC1(C)C2(C#N)C(N)=NC(OC)(OC)C12C#N (configuration not stated)
 : i	.
- Cn1c(C(=O)OC(C(=O)NC2CCCC2)c2ccncc2)cc2sccc21 (configuration not stated)
 : i	>57
- CCS(=O)(=O)N1Cc2ccccc2CC1C(=O)Nc1nc2ccccc2[nH]1 (configuration not stated)
 : i	.
